# From PubChem
# gsp ag = agonists of gsp mutant (McCune-Albright syndrome); gsp mutant cells, cAMP HTRF, 30 min; control for the full effect not named in the record; Potency, µM (series often up to 76.9 µM), for inactives: top-dose activation (cAMP increase), hits mostly activators; 340,000 compounds, 0.13% hits; active = well fitted activation curve with a large enough effect; inconclusive = small, poorly fitted or top-dose-only effect, or another doubt; inactive = no such curve, though single readings can be large or run the other way; cell line not stated here;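 further: phosphodiesterase inhibitor Ro 20-1724 added with compounds to block cAMP breakdown; potency means the concentration at half of the fitted maximal effect; nearly all actives have a fitted effect of over 60% in size; about a fifth of the inactives were tested at one dose only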
#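 Cells stably selected in G418 were plated at 2000/well, grown 16-24 hr, then given compounds in DMSO with the PDE inhibitor […] (300 uM solution added) for 30 min at 37C; cAMP was read by HTRF.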
# TRPML1 blocker = inhibitors of human TRPML1 channel; Q9GZU1; TRPML1-inducible cells, Ca2+ dye fluorescence, FDSS; stronger effect = lower value; inhibition of EC80 agonist-evoked calcium signal; activity change, negative = inhibition, % (no concentration beside the values); 390,000 compounds, 0.02% hits; in the data active means activity change below about -50%; inconclusive means about -30% to -50%; inactive means above about -30%;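 further: stimulus is agonist 54-4 at its EC80 concentration; on the % scale 0 is the no-effect control and ±100 the full control effect; compound concentration not given in the record; the text of the record puts the active cut at -80%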
# Target sequence (Q9GZU1 whole entry, looked up): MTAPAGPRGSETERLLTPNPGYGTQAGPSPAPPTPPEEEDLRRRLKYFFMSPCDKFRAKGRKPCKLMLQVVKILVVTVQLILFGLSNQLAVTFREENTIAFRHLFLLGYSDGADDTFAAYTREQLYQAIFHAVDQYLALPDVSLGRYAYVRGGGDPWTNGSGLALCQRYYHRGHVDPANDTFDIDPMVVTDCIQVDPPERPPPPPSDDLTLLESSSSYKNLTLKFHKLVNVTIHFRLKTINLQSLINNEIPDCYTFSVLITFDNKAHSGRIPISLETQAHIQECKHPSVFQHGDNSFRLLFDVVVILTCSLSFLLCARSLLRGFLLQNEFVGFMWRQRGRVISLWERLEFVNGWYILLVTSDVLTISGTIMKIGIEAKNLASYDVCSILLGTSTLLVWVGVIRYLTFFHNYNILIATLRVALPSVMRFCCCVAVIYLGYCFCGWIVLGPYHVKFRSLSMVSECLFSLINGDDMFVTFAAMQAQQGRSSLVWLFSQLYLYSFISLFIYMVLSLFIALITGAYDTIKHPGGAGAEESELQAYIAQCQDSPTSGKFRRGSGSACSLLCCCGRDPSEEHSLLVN
#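 Tet-induced TRPML1-DL cells loaded with Ca8 no-wash calcium dye were read kinetically on FDSS. Compound addition was followed by EC80 agonist 54-4 (4 uM final); inhibition was read over 110 s.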
# ClpP mod = qHTS Assay for Activators of ClpP; 340,000 compounds, 1.9% hits; AID 651965, 2013; Potency, µM (doses to about 57.5 µM), without a hit: at the top dose activity change, negative = active; purified B. subtilis ClpP, FRET peptide cleavage, 20 min; ATP-dependent Clp protease proteolytic subunit (Bacillus subtilis (strain 168)), P80244; active = well fitted falling curve with a large enough effect; inconclusive = small, poorly fitted or top-dose-only effect; inactive = no such curve, though single readings can be large or run the other way; further: potency means the concentration at half of the fitted maximal effect; the source files actives as falling curves though it sought activators and does not explain the sign; nearly all actives have a fitted effect of over 65% in size; many hits overshoot -100%
# Target sequence (P80244 whole entry, looked up): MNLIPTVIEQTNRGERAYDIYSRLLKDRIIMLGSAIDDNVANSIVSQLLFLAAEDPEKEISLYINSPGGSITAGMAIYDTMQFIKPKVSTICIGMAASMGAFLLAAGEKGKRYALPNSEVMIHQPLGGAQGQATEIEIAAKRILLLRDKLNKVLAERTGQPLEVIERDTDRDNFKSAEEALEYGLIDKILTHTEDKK
#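 FRET quenching reversal measured ClpP activation: 10 microg/mL B. subtilis ClpP at pH 8 with the FRET-FV decapeptide, read at 430 nm after 320 nm excitation. The 20-min minus 0-min signal was scaled between DMSO/no-enzyme wells and ADEP (5.8 microM final).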
# TRPML1 agonist = agonists of human TRPML1 channel. 410,000 compounds, 0.12% hits. AID 624414. activation, % (test concentration not listed). TRPML1-expressing cells, Ca2+ dye fluorescence, FDSS; host cell line not named in the record; reference of the full effect not given here; in the data active = activation above about 50%; inconclusive = about 30% to 50%; inactive = below about 30%; further: 0% is about no effect; the text of the record puts the active cut at 80%
#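 Kinetic FDSS Ca2+ read in Tet-induced TRPML1-DL cells (ABD Ca8 dye plus quencher, 45-90 min RT loading): baseline, then compound, then 110 s agonist window; EC80 agonist 54-4 at 4uM final added afterwards for a 110 s antagonist window.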
# Menin-MLL FL inh = displaces fluorescein MLL peptide from human menin; 290,000 tested, under 10 active; FP activity change, % at 61.4 µM; Fluorescence polarization, fluorescein-MLL peptide displacement from menin; inconclusive = falling polarisation curve, or a change in total fluorescence; inactive = total fluorescence flat and polarisation flat or rising; no compound was filed as active; the % refers to the polarisation; negative = inhibition;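 further: % of control where 0% means no effect; inhibitors lower the polarisation; unlabelled MLL peptide was the positive control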
# gsp antag = antagonizes gsp, the McCune-Albright syndrome mutation; gsp-mutant cells, cAMP HTRF, 30 min; control for the full effect not named in the record; Potency, µM (top dose mostly 76.9 µM), for the others: at the top dose activity change, negative = inhibition, usual class: inhibitors; 340,000 compounds, 0.4% hits; active = falling curve of any shape with a large fitted effect; inconclusive = falling curve, mostly with a smaller effect; inactive = flat or rising curve; cell line not stated here;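 further: intracellular cAMP measured with PDE inhibitor Ro 20-1724 present during compound exposure; potency means the concentration at half of the fitted maximal effect; on the % scale 0 is the no-effect control and ±100 the full control effect; nearly all actives have a fitted effect of over 65% in size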
#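 Cells in G418 medium, seeded 16-24 h, 37C; buffer exchange to DPBS + 1 mM CaCl2, 0.5 mM MgCl2, 0.05% BSA; cpds in DMSO + […] (300 uM stock), 30 min 37C; HTRF cAMP detection.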
# * hit, by the source's call; ? = inconclusive; . = no result given; & = joins results of further samples; [ ] = another dose, or the depositor's remark.
# Every second line gives: gsp ag	TRPML1 blocker	ClpP mod	TRPML1 agonist	Menin-MLL FL inh	gsp antag
> Cn1c(=O)c(=O)n(C)c2cc(S(=O)(=O)N3CCCCC3)ccc21
  2%	-1	?	-0.2	-1.7	8%
> COc1ccc(O)c(C(=O)c2cnc3c(c2)c(=O)[nH]c(=O)n3C)c1
  2%	-11	0.8%	1.5	7.4	7%
> CSc1ccccc1-c1nc(-c2ccncc2)no1
  1%[15.4 µM]	18	0.5%	-0.6	9.1	-3%
> O=c1oc2c3c4c(cc2c2c1CCC2)OCCN4CCC3
  6%	41	18µM*	3.5	-0.6	1%
> O=C(CC(NS(=O)(=O)c1ccc(Cl)cc1)c1ccco1)N1CCc2ccccc21 (centres undefined)
  4%	-4	0.1%	1.1	-0.6	-9%
> O=S(=O)(c1ccc2ccccc2c1)N1CCN(Cc2ccccn2)CC1
  -2%[15.4 µM]	-4	.	-0.4	-0.3	-21%
> O=C(COC(=O)C1(c2ccccc2)CC1)NNC(=O)c1ccccc1
  77%[15.4 µM]	2	.	0.0	.	10%
> CCn1c(CC2C(=O)N(C)c3ccc(Br)cc32)nc2ccccc2c1=O (centres undefined)
  .	36	4.0%	-1.0	.	.
> Cc1cc(O)c(/C=N/Nc2cccc(Cl)c2)c(=O)o1
  29%	4	-5.2%	-0.7	7.4	-2%
> Cn1cccc1C(=O)NCc1ccc(Cl)cc1
  -10%[15.4 µM]	3	.	-0.1	1.6	8%
> COc1cccc(OCCOCCN(C)CCO)c1
  20%	-3	-1.0%	-0.2	-4.6	9%
> COc1ccc(/C=C(/NC(=O)c2ccc(C)cc2)C(=O)NCC2CCCO2)cc1 (centres undefined)
  -1%[15.4 µM]	31	.	-0.3	-1.9	.
> CC1CCN(Cc2cc(=O)oc3cc4c(cc23)CCCC4)CC1
  -18%	-6	-0.3%	-0.8	1.8	1%
> CC(=O)CCC(=O)OCC(=O)c1ccc(C(F)(F)F)cc1
  24%	22	3.2%	0.0	-0.3	14%
> CN=C1SC(CC(=O)Nc2c(C)cccc2C)C(=O)N1/N=C/c1cccs1 (centres undefined)
  22%[15.4 µM]	11	1.3%	0.2	-1.3	-18%
> COc1ccc2cc(C(c3nnnn3C3CCCCC3)N3CCCCCC3)c3nnnn3c2c1 (centres undefined)
  -39%[inhibitor]	-10	-14%	-0.8	.	2%
> O=C(Nc1nnc(-c2ccncc2)o1)c1ccc2ccccc2c1
  11%	2	-3.6%	-0.4	-0.5	-10%
> O=C(NCCNS(=O)(=O)c1ccccc1Cl)c1cc(OCC(F)(F)F)ccc1OCC(F)(F)F
  13%	24	-6.3%	-0.2	2.6	2%
> COc1ccc(OC)c(/C=N/n2c(C)nc3ccccc3c2=O)c1
  -42%[inhibitor]	4	-9.6%	5.3	.	8%
> Nc1cccc(Oc2cnccn2)c1
  -11%	21	0.2%	3.0	-7.2	10%
> O=C(Nc1ccccc1)Nc1ccccn1
  -5%	7	-0.6%	-0.7	-2.1&6.1	0%
> O=C(COc1ccc2c3c(c(=O)oc2c1)CCC3)NCCN1CCOCC1
  3%	-9	2.9%	-0.1	-2.9	-7%
> CS(=O)(=O)c1ccc(Cl)c(NC(=O)Cc2ccccc2F)c1
  -3%[15.4 µM]	8	.	-0.5	0.6	.
> CC(C)OC(=O)c1nnc(-c2ccccc2)nc1OC(C)C
  -2%	-8	1.3%	3.5	4.1	-12%
> CCOC(=O)/C(=C/C=C1\Sc2cc(C)c(C)cc2N1CC)C(C)=O
  -1%	-3	5.7%	90*	?	?
> Cc1ccc(NC(=O)c2cccc(S(=O)(=O)N(C)c3ccccc3)c2)cc1S(=O)(=O)N1CCOCC1
  -44%[inhibitor]	23	-11%	0.0	5.9	?
> COc1ccc(C(C(=O)NC2CCCC2)N(CCCO)C(=O)Cn2nnc(-c3ccc(C)o3)n2)cc1 (centres undefined)
  -36%[inhibitor]	-2	.	-0.6	0.5	1%
> Cc1ccccc1N1CC(C(=O)Nc2ccc(S(=O)(=O)N3CCCC3)cc2)CC1=O (centres undefined)
  25%	0	0.7%	-0.4	.	3%
> Cc1ccc(C)c(CN2C(=O)c3ccccc3S(=O)(=O)c3ccc(C(=O)N4CCCC4)cc32)c1
  .	-1	1.5%	2.2	.	.
> Cc1cc(Cl)ccc1NNC(=O)CCc1ccccc1
  -12%[15.4 µM]	30	0.7%	-0.3	0.2	11%
> CNC(=S)NNc1nc(C)cc(C)n1
  -34%[inhibitor]	-22	-0.3%	-0.1	-0.5	-4%
> COC(=O)Cn1c(=NC(=O)CSCC(=O)Nc2cc(C)on2)sc2cc(C(=O)OC)ccc21
  -3%	25	-6.4%	-0.4	-3.5	21%
> Cc1cccc(NC(=S)NC(NC(=O)OCc2ccccc2)C(Cl)(Cl)Cl)c1 (centres undefined)
  -9%	-8	-1.2%	0.4	.	3%
> COc1cccc(CN(Cc2ccco2)C(c2ccc(F)cc2)c2nnnn2C(C)(C)C)c1 (centres undefined)
  4%	-4	1.6%	106*	2.3	-5%
> Cc1ccc(S(=O)(=O)N2CCCc3cc(NC(=O)c4ccc(C(F)(F)F)cc4)ccc32)cc1
  .	77	-14%	0.9	.	.
> Clc1cccc(-n2ncc3c(NC4CCCCCC4)ncnc32)c1
  .	54	?	0.3	.	.
> Fc1ccccc1Oc1nc(-c2ccncc2)nc2ccccc12
  ?	69	-0.5%	0.6	1.2	8%
> COc1ccc(NC(=O)CCSc2nnc(C)s2)cc1
  -1%	10	-2.0%	1.1	1.6	8%
> CCOC(=O)C1=CC[C@@H](c2ccccc2)N(S(=O)(=O)c2ccc(C)cc2)[C@H]1C#N
  .	-2	0.6%	0.7	.	.
> CC(C)(C)c1cc(C(=O)N/N=C/c2ccc(O)cc2)n(-c2ccccc2)n1
  -32%[inhibitor]	-7	32µM*	1.2	1.3	-7%
> Nc1c(-c2ccc(F)cc2)cnn1C1CCS(=O)(=O)C1 (centres undefined)
  -27%	5	-3.2%	-1.6	1.2	8%
> Cc1ccc(-n2c(CCc3ccccc3)nnc2SCC(=O)NCc2ccccc2)cc1C
  ?	-8	-0.3%	0.8	-0.5	-14%
> Cc1ccc(N(CN2C(=O)C3CC=CCC3C2=O)C(=O)c2ccco2)cc1Cl (centres undefined)
  5%	-3	1.4%	-0.2	1.9	-21%
> O=C(Nc1cccc(-c2nnc(-c3ccccc3)o2)c1)c1ccc(Br)o1
  -20%	3	-25%	2.4	2.3	-28%
> O=C1CC2(CCN(S(=O)(=O)c3ccccc3)CC2)Oc2ccccc21
  -2%	-4	?	0.4	.	-8%
> COc1ccc2oc(-c3ccncc3)cc(=O)c2c1
  ?	-2	.	-1.1	.	4%
> Cc1c(C(=O)Nc2nccs2)oc2ccc(Br)cc12
  -4%	-12	-27%	0.5	.	1%
> COc1ccc(CN(C)CCCn2cnc3c(OC)ncnc32)cc1OC
  ?	-1	0.4%	0.3	.	.
> CC(=O)Nc1ccc(NC(=O)C(c2ccccc2)c2ccccc2)cc1
  -1%	15	-1.1%	-0.5	0.5	9%
> COc1ccc2c(c1OC)C(=O)N(c1ccc(C)cc1)C2=O
  8%[15.4 µM]	2	.	-0.7	-1.6	-16%
> Cc1cccc(C(=O)OCC(=O)c2c(N)n(CC(C)C)c(=O)n(C)c2=O)c1[N+](=O)[O-]
  19%[15.4 µM]	6	.	1.9	.	?
> O=C(Cc1coc2cc(O)ccc12)N1CCN(S(=O)(=O)c2ccc(Br)cc2)CC1
  4%	10	-0.3%	1.6	.	?
> CC[n+]1ccc(C)c2cc(SC(F)(F)F)ccc21
  -54%	3	.	-0.4	-1.4	-1%
> CCn1c(SCCC(=O)Nc2ccccc2)nnc1-c1ccc(OC)cc1
  -13%	7	-4.9%	0.6	3.1	-10%
> Cn1c(COc2ccccc2C(C)(C)C)nc2ccccc21
  .	69	-1.8%	8.5	.	.
> Cc1ccc(N2CCN(C(=S)c3ccc(-c4cccc([N+](=O)[O-])c4)o3)CC2)cc1
  20%	26	-1.7%	1.0	-2.0	3%
> Cc1ccc(C)c(N2CCN(CC3CCCCC3)CC2)c1
  -1%[15.4 µM]	-11	1.4%	-0.5	-1.6	-11%
> CCOc1ccc(NC(=O)C(c2ccccn2)N(C(=O)CCl)c2ccc(F)cc2)cc1 (centres undefined)
  16%	-1	4.9%	1.0	1.1	3%
> COc1ccccc1N1CCN(C(=O)c2ccc(Nc3nc4ccccc4n4nnnc34)cc2)CC1
  .	-19	-19%	-0.4	.	.
> O=C(COC(=O)c1cccnc1Cl)Nc1cc(S(=O)(=O)N2CCCCC2)ccc1Cl
  10%[15.4 µM]	11	.	0.5	4.5	?

# The listing continues:
# Every second line gives: gsp ag	TRPML1 blocker	ClpP mod	TRPML1 agonist	Menin-MLL FL inh	gsp antag
> Nc1ccc2nc(SCc3cccc(F)c3)sc2c1
  -4%	-3	.	0.5	0.7	8%
> CCOC(=O)Cn1cnc2c(nnn2-c2ccccc2)c1=O
  -19%	19	-0.3%	-0.2	0.6	1%
> COc1cc(C(=O)OCC(=O)Nc2ccc(C)cc2)cc(OC)c1OC
  1%	25	.	2.4	-1.2	-3%
> COc1ccc(CCNC(=O)C2COc3ccccc3O2)cc1OC (centres undefined)
  23%	0	.	-0.4	.	1%
> OC(CN1CCN(Cc2ccc3c(c2)OCO3)CC1)c1c[nH]c2ccccc12 (centres undefined)
  -1%[15.4 µM]	-6	-2.6%	0.9	2.6	6%
> O=C(NNC(=O)c1ccc([N+](=O)[O-])cc1Cl)c1ccncc1
  -2%[15.4 µM]	13	0.3%	-0.5	-1.6	14%
> Cc1cc(OC(=O)c2c(F)cc(F)cc2F)nc(C)n1
  ?	-7	.	0.4	-5.8	5%
> COc1ccccc1CNC(=O)[C@H](Cc1c[nH]c2ccccc12)NC(=O)[C@@H]1Cc2ccccc2CN1
  -29%	1	-5.3%	-0.5	1.6	-3%
> CSc1ncc(C(=O)Nc2cccc(Cl)c2C)c(-c2ccccc2)n1
  .	4	2.3%	2.1	.	.
> O=C(C1CCN(S(=O)(=O)c2ccc(-n3cnnn3)cc2)CC1)N1CCN(c2ccccc2)CC1
  -26%	6	-0.1%	-0.5	3.2	-14%
> CCOC(=O)C1(C)CCCCCN1C(=O)c1ccc(SC(F)(F)F)cc1 (centres undefined)
  .	20	0.0%	-0.4	.	.
> NC1=NC(=O)C(c2ccccc2)C(=O)N1 (centres undefined)
  7%	-4	.	-0.8	.	6%
> O=c1c2ccsc2ncn1Cc1cccc(C(F)(F)F)c1
  13µM*	7	0.3%	1.7	0.9	-2%
> O=c1[nH]c(=S)[nH]c2sccc12
  -2%[15.4 µM]	2	?	-0.4	-0.3	11%
